Source: PubChem BioAssay
MT1-MMP promoter: inhibitors of MT1-MMP promoter transcription, cell-based, luciferase reporter, luminescence (AID 618). calls from a first round at 10 µM; hits with a dose series show EC50 in µM. MT1-MMP promoter luciferase reporter cells, luminescence. 87,000 tested, 0.62% active;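 active = over half of the reporter light lost at 10 µM or EC50 under 50 µM; inactive = the rest and hits that failed the dose series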;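 note: actives suppress MT1-MMP promoter-driven transcription so potencies describe inhibitors; HT1080 fibrosarcoma cells; overnight exposure; toxic or luciferase-blocking compounds were not removed from the actives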
Hsc70: Hsc70 inhibitors, probe displacement, primary screen, biochemical, fluorescence polarization (AID 568); Hsc70 fluorescence polarization, probe displacement; higher % means a stronger effect; strong numbers were not always called active; one-dose displacement, % at 20 µM; IC50 in µM for titrated hits; 83,000 tested, under 10 active;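 active = displacement above 50% without optical interference and an IC50 on retest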;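 note: ATPase domain with a fluorescein-tagged ATP probe; 0% = vehicle and 100% = excess ADP; read after one hour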
WNV protease inh: inhibitors of WNV NS2B-NS3 protease, primary screen, biochemical, fluorogenic substrate. Genome polyprotein (West Nile virus), P06935. fluorogenic substrate Ex360/Em465; stronger effect = lower value. z-score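 (tested at a level between 10 and 100 µM)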. 65,000 tested, 0.18% active;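 active = z-score at -3 or under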;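 note: score is relative to mean and spread of the compound wells of a plate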
Target sequence (P06935 1371-1501 limits assumed): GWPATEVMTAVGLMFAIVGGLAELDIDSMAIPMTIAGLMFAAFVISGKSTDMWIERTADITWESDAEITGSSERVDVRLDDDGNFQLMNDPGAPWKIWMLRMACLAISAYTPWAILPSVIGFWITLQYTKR
Target sequence (P06935 1502-1679 limits assumed): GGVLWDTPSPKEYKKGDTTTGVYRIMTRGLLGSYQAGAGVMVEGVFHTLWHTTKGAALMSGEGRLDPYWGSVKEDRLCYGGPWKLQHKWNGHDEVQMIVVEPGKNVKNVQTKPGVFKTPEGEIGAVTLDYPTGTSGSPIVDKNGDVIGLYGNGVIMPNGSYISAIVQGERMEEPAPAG
Starred values were filed as active, the others as inactive; i = inactive; x = no result given.

Screens in order: MT1-MMP promoter, Hsc70, WNV protease inh
COCc1n[nH]c(=S)n1-c1cccc2ccccc12
→ i, 0.0%, -0.02
COc1cc2c(cc1OC)-c1cc(NC3CCCC3)nc(=O)n1CC2
→ i, -3.5%, -0.45
COCc1cc(C)nc(SCC(=O)Nc2ccc3c(c2)OCO3)c1C#N
→ i, 0.8%, -0.18
O=C(O)CCC(NC(=O)OCc1ccccc1)C(=O)O (centres undefined)
→ i, -0.1%, -0.78
CCCS(=O)(=O)N1CCCC(C(=O)NCCCN(C)Cc2ccccc2)C1 (centres undefined)
→ i, 0.9%, -1.1
O=C(CCc1nc2ccccc2[nH]c1=O)OCC(=O)N1CCc2ccccc21
→ i, -3.2%, 0.52
Fc1ccc(N2CCN(C(c3cccs3)c3nnnn3C3CCCC3)CC2)cc1 (centres undefined)
→ i, -6.3%, -1.6
Cc1cc(OCC(=O)Nc2ccncc2)ccc1Br
→ i, -4.5%, -0.67
Cc1nc(SCC(=O)Nc2ccc(C)c(F)c2)c2oc3ccccc3c2n1
→ i, -3.3%, 0.59
CCOc1ccc(-c2nnc(SCC(=O)N(CC)CC)n2N)cc1
→ i, -11%, -0.62
O=C(Nc1ccc(F)cc1)N1CCN(c2nc3ccccc3s2)CC1
→ i, 6.0%, 1.4
O=C(NCc1cccnc1)/C(=N\O)c1ccccc1
→ i, 8.2%, 0.46
CCOC(=O)CN1C(=O)C(C)(C)Oc2ccc(C(=O)NC(C)(C)CC)cc21
→ i, -3.0%, -0.13
CC1=C(OC(=O)c2ccccc2)C(C)(C)C(c2ccc(Br)cc2)OC1=O (centres undefined)
→ i, -1.6%, x
Cc1ccnc(N2CCC(C(=O)Nc3nnc(C)s3)CC2)n1
→ i, 3.9%, 0.86
CC(C)OC(=O)CSc1nnc(-c2cnccn2)n1-c1ccc(Cl)cc1
→ i, 0.9%, 0.26
COc1ccc(OCc2ccc(-c3nc4ccccc4c(=O)n3N)o2)cc1
→ i, 4.0%, -1.6
COc1ccc(-c2cc(C(F)(F)F)nc(SCCC(=O)N3CCOCC3)n2)cc1
→ i, 1.9%, -0.62
Cc1cccc2cc(CN(CCCO)C(=O)Nc3cccc(Cl)c3)c(=O)[nH]c12
→ i, 0.6%, 0.67
O=C(CN1C(=O)c2ccccc2S1(=O)=O)N1CCc2ccccc21
→ i, -1.6%, -0.0016
Cc1cc(Cl)c(S(=O)(=O)NCc2ccccc2)cc1OCC(N)=O
→ i, 1.5%, x
CC(=O)Nc1ccc(S(=O)(=O)N2CCN(CC(O)COc3ccc4ccccc4c3)CC2)cc1 (centres undefined)
→ i, 4.3%, x
CS(=O)(=O)N(Cc1ccccc1)c1ccccn1
→ i, -3.5%, 0.05
COc1ccc(CC(=O)Nc2nc3n(n2)C(c2ccccc2)CC(=O)N3)cc1OC (centres undefined)
→ i, 0.4%, -1.4
CCOC(=O)C1=C(C)NC2=C(C(=O)C(C(=O)OC)C(C)C2)C1c1ccc(OC)c(O)c1 (centres undefined)
→ i, -2.7%, -0.69
CC(=O)Nc1ccc(S(=O)(=O)NC2(C(F)(F)F)C(=O)Nc3c2c(=O)[nH]c(=O)n3C)cc1 (centres undefined)
→ i, -0.9%, x
CC(=O)N(/N=C1\Sc2ccccc2C1=O)c1cccc(C)c1
→ i, 15%, x
C=CCc1cccc(CNc2nc3ccccc3n2CCC)c1O
→ i, -6.4%, 0.009
O=C1COc2ccc3ccccc3c2CN1
→ i, 3.4%, 0.3
O=C(c1ccccc1-c1nc(-c2ccc(F)cc2)no1)N1CCCC1
→ i, 10%, 0.15
Cc1cc(C)c2cc(CN(CCO)Cc3nnnn3Cc3ccccc3)c(=O)[nH]c2c1
→ i, 1.6%, 0.04
COCCN(C(=O)CCC(=O)Nc1ccccn1)C(C(=O)NCCC(C)C)c1ccc(OC)cc1 (centres undefined)
→ i, -0.6%, 0.49
CC1CCCCN1C(=O)NC12CC3CC(CC(C3)C1)C2 (centres undefined)
→ i, 3.5%, x
CCC(C)(C)n1nnnc1CN1CCN(c2nc3cc(OC)ccc3cc2C#N)CC1
→ i, -7.6%, -1.3
O=C(CSc1nc(-c2ccco2)cc(C(F)(F)F)n1)NCc1cccs1
→ i, -3.7%, -0.74
CCC(C)[C@H](NC(=O)NCCCN1CCOCC1)C(=O)OC (some centres undefined)
→ i, -2.9%, -0.05
CCCC(=O)Nc1cccc(NC(=O)c2ccc3c(c2)OCCO3)c1
→ i, 2.1%, 0.35
CC(C)(C)c1nc2c(C#N)c(-c3ccc(Cl)cc3)ccn2n1
→ i, 2.3%, x
Cc1cc(C(=O)CN2C(=O)c3ccccc3S2(=O)=O)c(C)n1CC1CCCO1 (centres undefined)
→ 0.11µM*, 0.2%, 2.7
CCCN1C(=O)SC(CC(=O)Nc2ccccc2C)C1=O (centres undefined)
→ i, -4.5%, x
C=CCn1c(SCc2ccc(C#N)cc2)nnc1-c1cccc(Cl)c1
→ i, 5.4%, -0.69
COC(=O)NC(=C(Cl)Cl)S(=O)(=O)c1ccccc1
→ i, 0.7%, x
CCOC(=O)N1CCC(NS(=O)(=O)c2cc(Br)cc3c2N(C(=O)CC)CC3)CC1
→ i, -3.9%, -0.47
CC1CCCN(Cc2nc3c(c(=O)n(C)c(=O)n3C)n2CC(=O)c2ccccc2)C1 (centres undefined)
→ i, 2.6%, 2
CS(=O)(=O)N(CC(=O)NC1CCCC1)c1ccc2c(c1)OCCO2
→ i, 3.6%, 0.26
CCC(C)c1ccc(OCC(=O)O)cc1 (centres undefined)
→ i, 0.9%, -0.06
COc1ccccc1C1CN(c2ccc(F)cc2F)N=C1c1cccs1 (centres undefined)
→ i, 0.8%, x
CCOc1cc(C2C(C(=O)OC(C)C)=C(C)N=C3SCCC(=O)N32)ccc1OC(C)=O (centres undefined)
→ i, 2.1%, 0.46
COc1ccc(C2C(=O)N(C3CCCCCC3)CC(=O)N2Cc2ccccc2)cc1OC (centres undefined)
→ i, -8.1%, -0.87
O=P(OC1CCCCC1)(OC1CCCCC1)C(O)c1c(Cl)cccc1Cl (centres undefined)
→ i, -0.2%, x
COc1ccc2ccccc2c1C1CC(=O)N2CN(Cc3ccco3)CSC2=C1C#N (centres undefined)
→ i, -3.4%, 0.27
CC(=O)Nc1ccc(S(=O)(=O)NCc2ccc3c(c2)cc(C)n3C)cc1
→ i, -0.5%, 1.6
Cn1cc(CNC(=O)C23CC4CC(CC(C4)C2)C3)cn1
→ i, -3.2%, x
C=CCn1c(=O)c2c(nc3n2CCS3)n(C)c1=O
→ i, 0.0%, 0.84
CC1=Nn2c(nnc2-c2ccccn2)SC1
→ i, -1.6%, 0.2
CCOC(=O)C1=C(CSc2nccn2C)NC(=O)NC1c1ccc(OC)cc1 (centres undefined)
→ i, 4.5%, x
COc1ccc2nc(NC(=O)CSc3nnc4n3C(C)(C)Cc3ccccc3-4)sc2c1
→ i, -4.3%, 1.6
CCC1(C)Cc2ccccc2-c2nc(NCCO)n(-c3ccccc3)c(=O)c21 (centres undefined)
→ i, 1.2%, 0.48
CCN1C(=O)CC(Sc2ccccc2C(=O)O)C1=O (centres undefined)
→ i, 3.5%, x
Cc1nc(C#N)c(NCc2ccc3c(c2)OCO3)o1
→ i, 3.7%, x

An excerpt of these results, as labelled records:
C=CCn1c(SCc2ccc(C#N)cc2)nnc1-c1cccc(Cl)c1
  MT1-MMP promoter: i
  Hsc70: 5.4%
  WNV protease inh: -0.69
COC(=O)NC(=C(Cl)Cl)S(=O)(=O)c1ccccc1
  MT1-MMP promoter: i
  Hsc70: 0.7%
  WNV protease inh: x
CCOC(=O)N1CCC(NS(=O)(=O)c2cc(Br)cc3c2N(C(=O)CC)CC3)CC1
  MT1-MMP promoter: i
  Hsc70: -3.9%
  WNV protease inh: -0.47

Following part.
SMILES | MT1-MMP promoter | Hsc70 | WNV protease inh
Brc1ccc2[nH]c3c(N4CCc5ccccc5C4)ncnc3c2c1 | i | -1.3% | x
O=C(CN(CCc1ccccc1)C(=O)CN1C(=O)COc2ccccc21)NCc1ccco1 | i | -6.8% | 0.29
CCN(CC)CCCN(Cc1cc2cc(OC)ccc2[nH]c1=O)C(=O)Nc1ccc(F)cc1 | i | -3.8% | 0.62
CCOC(=O)c1sc2nc(CC(=O)OC)nc(NCCN(CC)CC)c2c1C | i | 4.5% | x
Clc1ccc(OCc2nn3c(-c4ccco4)nnc3s2)c(Cl)c1 | i | -2.2% | -0.6
COC(=O)c1cc2c(=O)n3cccc(C)c3nc2n(Cc2cccnc2)c1=N | i | -40% | -0.38
Cn1cc(C(=O)c2ccc(F)cc2)cc1-c1nc2ccccc2n1C | i | -4.5% | -0.19
O=C1CN(C(=O)CC2c3ccccc3-c3ccccc32)CC(=O)N1 | i | -8.5% | 0.12
Cc1cc(C)n(-c2nc(-c3cccc(Cl)c3)cs2)n1 | i | 3.4% | 0.9
CCNCC(O)COCC(O)CNCC (centres undefined) | i | -4.5% | -0.41
c1cc(-n2cnnn2)ccc1NC1=NCCC1 | i | 4.7% | 1.1
COc1ccc(NC(=O)N(CCN2CCCC2)Cc2cc3cc(OC)c(OC)cc3[nH]c2=O)cc1 | i | -2.0% | -1.4
Cc1ccc(N2C(=O)c3n[nH]c(C)c3C2c2ccco2)cc1 (centres undefined) | i | -1.6% | 0.67
O=S(=O)(CCN1CCN(C(c2ccccc2)c2ccccc2)CC1)C(F)(F)F | i | -0.3% | -0.52
Cc1cc(C)nc(N(C#N)Cc2ccccc2Cl)n1 | i | 3.1% | -1.8
CCCCCCn1c(NCC)nc2c1c(=O)n(C)c(=O)n2C | i | -8.1% | 1.4
O=C(NCC(=O)N(Cc1ccco1)C(C(=O)NC1CCCC1)c1cccnc1)c1ccco1 (centres undefined) | i | -0.4% | x
COc1ccc(S(=O)(=O)Nc2ccc(NC(C)=O)cc2)cc1 | i | 0.4% | x
O=C(c1ccco1)N1CCN(C(c2cccs2)c2sc3ncnn3c2O)CC1 (centres undefined) | i | 5.4% | 1.4
O=c1cc(-c2c(F)c(F)c(F)c(F)c2F)oc2c(F)c(F)c(F)c(F)c12 | i | 13% | -0.49
COCCN(C(=O)c1csnn1)C(C(=O)NC(C)(C)C)c1cccc(OC)c1 (centres undefined) | i | 1.6% | -1.2
O/N=C1\CCC\C1=C/c1ccco1 | i | -1.3% | -0.87
COc1ccc(-n2nc(C(=O)NCC(=O)NCC3CCCO3)c3ccccc3c2=O)c(OC)c1 (centres undefined) | i | -9.1% | -1.5
Cc1cc(C)n2nc(SCC(=O)c3cc(C)n(-c4cc(C)on4)c3C)nc2n1 | i | -4.3% | 2.5
CCOC(=O)C1CCN(S(=O)(=O)c2cc(Br)cc3c2N(C(C)=O)C(C)C3)CC1 (centres undefined) | i | -10% | -0.01
Cc1[nH]n2c(=O)c3c(nc2c1-c1cccc2ccccc12)CCC3 | i | -2.3% | x
Cn1c(COc2ccc(Cl)cc2)nnc1SCC(=O)NC1CCCCC1 | i | 0.1% | -0.44
COc1ccc(NC(=O)C(NS(=O)(=O)c2ccc3c(c2)CCCN3C(C)=O)C(C)C)c(OC)c1 (centres undefined) | i | 5.7% | -1.4
COc1ccc(C(=O)Nc2ccccc2)cc1S(=O)(=O)Nc1cc(C)on1 | i | 4.8% | 0.04
Cc1ccc(S(=O)(=O)NCCOCCNS(=O)(=O)c2ccc(C)cc2)cc1 | i | 4.4% | -0.22
CCC(=O)Nc1nnc(C)s1 | i | -2.5% | x
CCCCCn1c(CN2CCN(C(=O)c3ccco3)CC2)nc2c1c(=O)n(C)c(=O)n2C | i | 4.1% | 0.01

Structural class: the compounds so far containing a COOH group.
SMILES | MT1-MMP promoter | Hsc70 | WNV protease inh
O=C(O)CCC(NC(=O)OCc1ccccc1)C(=O)O (centres undefined) | i | -0.1% | -0.78
CCC(C)c1ccc(OCC(=O)O)cc1 (centres undefined) | i | 0.9% | -0.06
CCN1C(=O)CC(Sc2ccccc2C(=O)O)C1=O (centres undefined) | i | 3.5% | x

(cont.)
SMILES | MT1-MMP promoter | Hsc70 | WNV protease inh
Cc1cccnc1NC(=O)c1c(O)c2cccc3c2n(c1=O)CCC3 | i | 0.0% | 0.74
CCN(C(=O)Cn1c(=O)oc2ccccc21)C1CCS(=O)(=O)C1 (centres undefined) | i | -2.7% | x
CC1CCN(CCCNC(=O)C2CCN(S(=O)(=O)N3CCCCC3)CC2)CC1 | i | 0.1% | -1.1
O=C(CSc1nc(-c2ccco2)cc(C(F)(F)F)n1)N1CCN(c2ccc(Cl)cc2)CC1 | i | -3.5% | x
Cc1occc1-c1nnc(SCC(=O)N(C)C)o1 | i | -2.2% | x
N#Cc1nc(Cc2cccc3ccccc23)oc1NCc1ccc(F)cc1 | i | -2.2% | -0.11
CC1=C(C(=O)Nc2cccnc2)C(c2ccccn2)n2nnnc2N1 (centres undefined) | i | 2.6% | 1.8
N#Cc1nc(-c2cccs2)oc1NCc1ccc2c(c1)OCO2 | i | 0.6% | -0.2
COc1ccc(C)cc1NC(=O)CN1CCN(CC(=O)Nc2ccccc2F)CC1 | i | 1.5% | 1.6
O=c1[nH]c2cc3c(cc2cc1CN(Cc1nnnn1C1CCCC1)C1CCCC1)OCCO3 | i | 4.2% | x
CCN(CC)CCCNC(=O)C1CCCN(c2nnc(N3CCCC3=O)s2)C1 (centres undefined) | i | -2.1% | x
OC1C2(Cc3ccccc3)CN3CCN(C2)CC1(Cc1ccccc1)C3 (centres undefined) | i | 8.1% | x

Compounds were not picked by outcome; any-hit rate near 0.87%.
